Screening data (PubChem)
D2 potentiator: human D2 receptor positive allosteric modulation; AID 624464; P14416; potentiation, % (no concentration beside the values); 360,000 compounds, 0.23% hits; DiscoveRx D2 beta-arrestin cells, luminescence, 90 min; 100% = 57 uM dopamine signal; active = potentiation of 50% or more; inconclusive = 30% to 50%; inactive = 30% or less;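 also: compound concentration not given in the record; tested on top of an EC20 dose of dopamine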
Target sequence (P14416 whole entry, looked up): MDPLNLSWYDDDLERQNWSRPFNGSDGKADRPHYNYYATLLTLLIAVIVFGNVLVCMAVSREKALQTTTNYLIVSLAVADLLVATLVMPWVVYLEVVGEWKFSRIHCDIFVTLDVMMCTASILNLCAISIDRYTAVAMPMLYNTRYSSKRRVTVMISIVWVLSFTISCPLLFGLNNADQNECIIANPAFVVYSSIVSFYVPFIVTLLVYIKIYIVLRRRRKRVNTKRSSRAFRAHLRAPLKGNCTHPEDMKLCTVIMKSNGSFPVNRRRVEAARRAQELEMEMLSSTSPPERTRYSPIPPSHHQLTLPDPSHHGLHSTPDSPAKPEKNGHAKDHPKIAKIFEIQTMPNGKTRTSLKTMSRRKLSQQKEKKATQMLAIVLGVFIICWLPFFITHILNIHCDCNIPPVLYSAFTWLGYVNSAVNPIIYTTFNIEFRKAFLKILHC
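D2 cells co-treated with compound plus 50 nM dopamine (EC20) for 90 min at 37 deg C to detect potentiation. Beta-arrestin recruitment was read as enzyme-fragment luminescence after 1 h at ambient temperature. Full response was set by 57 uM dopamine.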
D2 agonist: human D2 receptor agonism in beta-arrestin assay. 360,000 compounds, 0.084% hits. P14416. activation, % (no concentration beside the values). DiscoveRx PathHunter D2 beta-arrestin, luminescence, 90 min; 100% = 57 uM dopamine signal. AID 624465; in the data active = activation above about 40%; inconclusive = about 15% to 40%; inactive = below about 15%; also: compound concentration not given in the record; the text of the record calls up to 30% inactive
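DiscoveRx PathHunter D2 beta-arrestin cells (2,100/well) attached overnight, then compound-stimulated 90 min at 37 C in HBSS/10 mM HEPES/0.1% Tween-20 buffer; beta-galactosidase complementation read by luminescence after 1 h at ambient temperature. Dopamine 57 uM final (EC100) as control.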
CtBP-E1A blk: CtBP/E1A binding inhibition; AlphaScreen GST-E1A/His-CtBP binding, 1536-well; stronger effect = lower value; control for the full effect not named in the record; activity change, % (concentration not given with the values); 340,000 compounds, 0.49% hits; AID 651724; in the data active means activity change below about -65%; inconclusive means about -30% to -65%; inactive means above about -30%; also: % is scaled to controls: 0 for no effect and ±100 for the full control effect
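AlphaScreen with 125 nM GST-E1A and 125 nM His-CtBP (5X stocks) in Tris pH 8.0, 300 mM NaCl, BSA, Tween 20, TCEP. Compounds preincubated 2 h at 37 deg C, then glutathione donor/nickel acceptor beads added for 1 h at 37 deg C in dark.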
Six1-Eya2 inh: blocks human Six1 binding to Eya2. 360,000 compounds, 0.56% hits. Q15475+O00167. AlphaScreen GST-Six1/His-Eya2 binding, biochemical; stronger effect = lower value; control for the full effect not named in the record. activity change, % (no concentration beside the values); in the data active = activity change below about -65%; inconclusive = about -30% to -65%; inactive = above about -30%; also: % is scaled to controls: 0 for no effect and ±100 for the full control effect
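Compounds are tested against tagged Six1 and Eya2 proteins bridged by glutathione donor and nickel acceptor beads; after a one-hour incubation at 37 °C without light, AlphaScreen emission is recorded.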
gsp antagonist: antagonizes gsp, the McCune-Albright syndrome mutation; gsp-mutant cells, cAMP HTRF, 30 min; control for the full effect not named in the record; Potency, µM (series often up to 76.9 µM), without a hit: at the top dose activity change, negative = inhibition, actives largely listed as inhibitors; 340,000 compounds, 0.4% hits; AID 624288; active = falling curve of any shape with a large fitted effect; inconclusive = falling curve, mostly with a smaller effect; inactive = flat or rising curve; cell line not stated here;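 also: intracellular cAMP measured with PDE inhibitor Ro 20-1724 present during compound exposure; potency is read from the fitted curve at half-maximal effect; % is scaled to controls: 0 for no effect and ±100 for the full control effect; nearly all actives have a fitted effect of over 65% in size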
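G418-selected cells were plated in DMEM/10% FBS for 16-24 h at 37C, then treated with compounds plus the PDE inhibitor […] (300 uM solution added) for 30 min at 37C. Intracellular cAMP was measured by HTRF after 30 min lysis at room temperature.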
gsp agonist: gsp mutant agonism | AID 624287 | gsp mutant cells, cAMP HTRF, 30 min; control for the full effect not named in the record | 340,000 compounds, 0.13% hits | Potency, µM (highest dose often 76.9 µM), without a hit: at the highest dose activation (cAMP increase), actives largely listed as activators; active = well fitted activation curve with a large enough effect; inconclusive = small, poorly fitted or top-dose-only effect, or another doubt; inactive = no such curve, though single readings can be large or run the other way; cell line not stated here;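 also: phosphodiesterase inhibitor Ro 20-1724 added with compounds to block cAMP breakdown; potency is read from the fitted curve at half-maximal effect; nearly all actives have a fitted effect of over 60% in size; about a fifth of the inactives were tested at one dose only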
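Cells stably selected in G418 were plated at 2000/well, grown 16-24 hr, then given compounds in DMSO with the PDE inhibitor […] (300 uM solution added) for 30 min at 37C; cAMP was read by HTRF.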
An asterisk follows results filed as active; ? = inconclusive; . = no result given; [ ] = remark or other dose.

SMILES	D2 potentiator	D2 agonist	CtBP-E1A blk	Six1-Eya2 inh	gsp antagonist	gsp agonist
CC(C)(C)OC(=O)N1CCC(C(=O)Nc2cccc(C(=O)NCCc3ccccc3)c2)CC1	-2	1.1	2	4	-27%	.
CS(=O)(=O)Nc1ccc(N2CCCCC2)c(Cl)c1	-10	-1.2	6	-2	5%	-3%
O=C(NC1CCCC1)c1noc2c1CCCCC2	-10	-1.9	8	3	24%	15%
Cn1c(SCc2ccc(F)cc2)nnc1-c1cnccn1	-6	-1.1	6	1	-4%	-4%
COc1ccc(CC(=O)NCc2cn3ccsc3n2)cc1	-17	-5.6	24	15	26%	-29%
Cc1cccc(NC(=O)c2cnc3sccn3c2=O)c1	-1	1.3	4	-8	5%	-20%
COc1cc(NC(=S)N2CCCCC2C)cc(OC)c1OC (stereo not drawn)	0	4.9	0	-3	11%	20%
CC1=CC2=NC(=O)/C(=C\c3cccn3CCOc3ccccc3)C(=N)N2O1	-10	2.1	.	-2	-20%	-103%[inhibitor]
CCCCCCN1C[C@H](O)[C@@H](n2cc(C3CC3)nn2)C[C@@H]1c1ccc(Cl)cc1	9	2.4	6	-7	.	-34%
O=C(CSc1ncnc2sc3c(c12)CCCC3)c1ccco1	-19	-2.0	-14	2	-11%	21%
COc1cccc(NC(=O)[C@H](Cc2ccccc2)NC(=O)[C@@H]2Cc3ccccc3CN2)c1	-11	-1.2	-2	1	14%	-9%
CCOCN(C(=O)Cn1c(CO)nc2ccccc21)c1c(C)cccc1CC	-3	0.0	-1	0	2%	0%
Cc1noc(C)c1C(=O)Nc1sc2c(c1C(N)=O)CCCCC2	-5	-2.6	35	25	10%	27%
COc1ccc(C(=O)Nc2cc(C)nn2-c2cccc(F)c2)cc1OC	-2	-5.7	.	0	8%	-15%
O=C(CCc1nc2sc3c(c2c(=O)[nH]1)CCCC3)NCCc1ccccc1	-1	-0.8	-24	-1	-7%	?
CCCN(CC(=O)Nc1ccccc1C)C(=O)Cc1cccs1	-4	-5.3	1	8	4%	-7%
CC(=O)Nc1ccc(N(C(=O)Cc2cccs2)C(C(=O)NC2CCCC2)c2ccncc2)cc1 (stereo not drawn)	-2	-5.1	3	18	8%	-4%[15.4 µM]
CCCC(=O)Nc1ccccc1NC(=O)c1ccc(OCC)c(OCC)c1	-6	-0.6	3	-2	-20%	-9%[15.4 µM]
CCOC(=O)CN1C(=O)N[C@@H](c2ccccc2)[C@@H](C(=O)OC)[C@H]1C	1	7.5	9	8	10%	-1%
CCCn1c(SCC(=O)N2CCc3ccccc32)n[nH]c1=O	0	-1.7	1	6	1%	2%[15.4 µM]
O=S(=O)(c1ccccc1)N1CCN(C(c2ccccc2)c2ccc(OC(F)(F)F)cc2)CC1 (stereo not drawn)	0	2.6	.	2	6%	?
Cc1cccc(C(=O)NCC(=O)OCC(=O)N2CC3(C)CC2CC(C)(C)C3)c1 (stereo not drawn)	-13	-0.1	10	20	14%	4%
COc1ccc2nc(Nc3nc(CSc4nc5ccccc5[nH]4)cc(=O)[nH]3)nc(C)c2c1	9	0.3	10	1	-30%	8%[15.4 µM]
CN(C(=O)CSc1cc(C(=O)c2nccn2C)c2ccccc2n1)c1ccccc1	-3	-0.5	4	-7	-22%	-9%[15.4 µM]
Cc1ccc(CC(=O)Nc2cccc(C#N)c2)cc1	-19	-4.6	-8	4	-2%	2%
CCOc1cc(N2CCOCC2)c(OCC)cc1NC(=O)c1ccc(OC(C)C)cc1	1	-2.1	10	-5	.	-12%[15.4 µM]
O=C(NC1CCCC1)c1cccc(Cn2cc([N+](=O)[O-])cn2)c1	-3	-1.2	-7	2	-11%	-33%[inhibitor]
CCOC(=O)c1c(C)n(C)c2ccc(OCC(O)CNC(CC)CO)cc12 (stereo not drawn)	-22	-1.2	-1	-3	-2%	?
Cc1ccc(C)c(SCC(=O)OCC(=O)NCc2ccccc2)c1	-4	-3.1	8	6	-5%	22%
O=C(CCN1C(=O)/C(=C/c2ccccc2Cl)SC1=S)NNC(=O)c1ccccc1O	-2	-2.1	-26	?	-23%	-16%

Overlap with the part before: 4 entries, followed by the next part.
SMILES	D2 potentiator	D2 agonist	CtBP-E1A blk	Six1-Eya2 inh	gsp antagonist	gsp agonist
O=C(NC1CCCC1)c1cccc(Cn2cc([N+](=O)[O-])cn2)c1	-3	-1.2	-7	2	-11%	-33%[inhibitor]
CCOC(=O)c1c(C)n(C)c2ccc(OCC(O)CNC(CC)CO)cc12 (stereo not drawn)	-22	-1.2	-1	-3	-2%	?
Cc1ccc(C)c(SCC(=O)OCC(=O)NCc2ccccc2)c1	-4	-3.1	8	6	-5%	22%
O=C(CCN1C(=O)/C(=C/c2ccccc2Cl)SC1=S)NNC(=O)c1ccccc1O	-2	-2.1	-26	?	-23%	-16%
O=C(CCCCCN1C(=O)CCC1=O)Nc1ccc2c(c1)OCO2	-4	-1.4	0	0	9%	-8%
Cc1cccc(NC(=O)CS(=O)CC(=O)Nc2cnc3ccccc3c2)c1C (stereo not drawn)	-6	0.4	-8	-13	-2%	?
CCOc1cc(NC(=O)C2CC2)c(OCC)cc1NC(=O)c1ccccc1OCC	3	4.6	-13	-23	?	15%
CCOc1ccc(CCNC(=O)C2=C(C)C(=O)OC23CCCCC3)cc1OCC	-5	-0.8	5	2	1%	-16%[15.4 µM]
CCc1noc(C)c1C(=O)N1CCN(S(=O)(=O)c2ccc(C(C)C)cc2)CC1	0	0.1	3	-1	3%	-9%[15.4 µM]
CCOc1ccc(OCCC(=O)N(CCCOC)c2c(N)n(Cc3ccccc3)c(=O)[nH]c2=O)cc1	-14	-5.0	8	0	4%	18%[15.4 µM]
CC(C)C[C@H](NC(=O)c1nc[nH]c1C(=O)NC(c1ccccc1)c1ccccc1)C(=O)OC(C)(C)C	-6	-0.1	-15	-20	-20%	-64%[inhibitor]
CCOC(=O)c1ccc(CSC(=N)N)o1	-10	-6.7	-16	2	9%	?
CSCCC(NS(=O)(=O)c1ccccc1F)C(=O)N1CC=C(c2ccccc2)CC1 (stereo not drawn)	16	-2.3	-3	-13	-3%	-8%
C=CCn1c(SCc2cc(=O)n3ccsc3n2)nc2ccccc2c1=O	-2	-1.8	-16	4	-3%	-8%
O=C(c1cccs1)N(Cc1ccco1)Cc1cc2ccccc2[nH]c1=O	-4	-2.3	-6	-2	0%	3%
CC(C)c1ccc(S(=O)(=O)N2CCN(C(=O)c3ccc(N4CCCC4)c([N+](=O)[O-])c3)CC2)cc1	14	-3.4	?	-21	-1%	2%
COc1ccc(C(=O)OCC(=O)NC(C)CCc2ccccc2)c(OC)c1 (stereo not drawn)	-7	-1.1	2	11	5%	28%
COc1cccc(C(=O)NNC2OC(CO)C(O)C2O)c1 (stereo not drawn)	-8	7.2	2	4	7%	0%[15.4 µM]
N#Cc1cccnc1N1CCN(C(=O)c2[nH]c(C(F)(F)F)nc2-c2ccccc2)CC1	-8	-5.2	-5	-18	.	.
CCn1nc(C(=O)OCC(=O)c2ccc(F)cc2)c2ccccc2c1=O	-21	-1.4	.	11	7%	1%
COCCNC(=O)c1[nH]c(C(F)(F)F)nc1-c1ccccc1	-3	-3.7	5	-2	.	.
Cc1nc(C)c(C(=O)N/N=C/c2cc(Br)ccc2O)s1	-13	-2.1	-84*	?	2%	24%
CCCCNC(=O)COC(=O)c1cc(F)c(F)cc1Cl	5	-0.1	4	6	10%	4%
COc1ccccc1NCCC(=O)OCC(=O)Nc1cc([N+](=O)[O-])ccc1F	-6	-1.2	-5	-12	-4%	-38%[inhibitor]

Not a retest: 2 of the compounds above.
SMILES	D2 potentiator	D2 agonist	CtBP-E1A blk	Six1-Eya2 inh	gsp antagonist	gsp agonist
N#Cc1cccnc1N1CCN(C(=O)c2[nH]c(C(F)(F)F)nc2-c2ccccc2)CC1	-8	-5.2	-5	-18	.	.
CCn1nc(C(=O)OCC(=O)c2ccc(F)cc2)c2ccccc2c1=O	-21	-1.4	.	11	7%	1%

Looked up above.
In gsp antagonist, CC(C)c1ccc(S(=O)(=O)N2CCN(C(=O)c3ccc(N4CCCC4)c([N+](=O)[O-])c3)CC2)cc1 has -1%
In gsp antagonist, O=C(c1cccs1)N(Cc1ccco1)Cc1cc2ccccc2[nH]c1=O has 0%

Continuation:
SMILES	D2 potentiator	D2 agonist	CtBP-E1A blk	Six1-Eya2 inh	gsp antagonist	gsp agonist
O=c1[nH]c2ccccc2nc1-c1c[nH]c2ccccc12	2	6.6	3	28	3%	23%
O=C(C1CCN(S(=O)(=O)Cc2ccccc2)CC1)N1CCN(c2ncccn2)CC1	-3	-4.8	3	-2	-5%	-11%
COc1cc(C(=O)Nc2ccc3c(c2)nc(C)n3C)cc(OC)c1OC	-8	1.7	.	0	11%	12%
O=C(Nc1ccccc1C(=O)N1CCCC1)c1cccc(S(=O)(=O)N2CCCCCC2)c1	5	0.1	1	-3	-14%	?
Cc1ccc(C(=O)OCC(=O)c2c[nH]c3ccccc23)cc1S(=O)(=O)N1CCOCC1	1	-1.8	3	-10	-18%	13%[15.4 µM]
CCN1C(=O)[C@H]2[C@@H](c3ccc(-c4cccc(Cl)c4)cc3)N[C@@](Cc3ccccc3)(C(=O)OC)[C@H]2C1=O	-8	-2.2	-10	-7	-21%	.
Cc1sc2ncnc(SCC(=O)NC(C)(C)C)c2c1C	0	-1.3	0	25	-2%	-20%[15.4 µM]
O=C(N/N=C/c1ccccn1)c1ccc([N+](=O)[O-])cc1Cl	-1	-0.5	?	?	-13%	2%
CCCc1cc(C(=O)Nc2ccc(C(=O)c3ccccc3)cc2)n(C)n1	-6	7.7	9	6	?	4%
O=C(O)c1ccccc1SCc1cn2cc(Cl)ccc2n1	0	0.3	4	-1	7%	?
